MenB inh = blocks the Mycobacterium tuberculosis MenB enzyme | inhibition, %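 (about 12 µg/mL by stock and volumes)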 | MenB enzyme assay, absorbance read-out; some hits fall short of the stated cut | 100,000 compounds, 0.43% hits | P9WNP5;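 active = mean of two replicates above 30%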;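 note: 0% = no compound and 100% = wells with inactive enzyme; the first replicate is given; strong numbers were not always called active; inactives centre near -10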
Mtb MbtI inh = blocks the Mycobacterium tuberculosis siderophore enzyme MbtI; AID 493033; 100,000 compounds, 0.89% hits; inhibition, %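 (about 17 µg/mL by stock and volumes)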; P9WFX0; purified MbtI enzyme, fluorescence intensity read-out;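 active = above 50% in both replicates, above 80% if mildly self-fluorescent; inactive = the rest, strongly fluorescent compounds included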;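 note: 0% = mean of negative and 100% = mean of positive controls; one replicate is shown; some compounds called inactive have numbers as strong as hits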
Target sequence (P9WFX0 whole entry, looked up): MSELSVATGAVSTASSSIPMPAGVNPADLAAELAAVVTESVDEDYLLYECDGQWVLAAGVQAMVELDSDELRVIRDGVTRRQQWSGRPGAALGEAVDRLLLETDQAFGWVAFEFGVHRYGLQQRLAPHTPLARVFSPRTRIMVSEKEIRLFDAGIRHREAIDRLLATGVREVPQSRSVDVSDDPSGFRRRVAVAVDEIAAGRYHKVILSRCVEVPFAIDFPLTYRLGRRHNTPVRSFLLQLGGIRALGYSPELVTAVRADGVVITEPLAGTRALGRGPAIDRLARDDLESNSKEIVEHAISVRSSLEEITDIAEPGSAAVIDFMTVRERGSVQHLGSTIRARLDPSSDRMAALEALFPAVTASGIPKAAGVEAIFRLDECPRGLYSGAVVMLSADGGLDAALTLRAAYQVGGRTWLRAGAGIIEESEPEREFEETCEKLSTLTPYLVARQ
Polio RdRp inh = poliovirus RNA polymerase inhibition | % elongation, % (compound at 16.7 µg/mL) | 150,000 compounds, 0.66% hits | AID 588519 | poliovirus polymerase elongation, fluorescence polarization; active compounds read low | P03300; in the data active = % elongation below about 90%; note: some results filed as inactive read as strong as hits
Target sequence (P03300 1749-2209 limits assumed): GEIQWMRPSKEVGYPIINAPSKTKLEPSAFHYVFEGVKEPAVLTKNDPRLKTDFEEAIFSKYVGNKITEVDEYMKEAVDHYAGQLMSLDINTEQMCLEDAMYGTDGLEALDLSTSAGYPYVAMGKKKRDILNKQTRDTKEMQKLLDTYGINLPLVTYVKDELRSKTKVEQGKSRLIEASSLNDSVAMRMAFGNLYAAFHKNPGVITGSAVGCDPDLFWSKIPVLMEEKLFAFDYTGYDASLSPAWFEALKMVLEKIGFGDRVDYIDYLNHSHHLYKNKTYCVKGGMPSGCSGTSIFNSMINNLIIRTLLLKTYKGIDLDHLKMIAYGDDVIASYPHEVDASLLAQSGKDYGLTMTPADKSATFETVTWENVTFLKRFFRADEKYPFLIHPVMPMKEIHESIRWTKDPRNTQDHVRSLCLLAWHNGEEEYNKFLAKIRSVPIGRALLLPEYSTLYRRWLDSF
Polio RdRp inh intensity = second read-out of Polio RdRp inh, no call of its own (marks repeat the call); % elongation; measured here: total intensity read-out; formula for this scale not given here;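 total fluorescence in place of polarization; lower means less elongation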
Starred values were filed as active, the others as inactive; i = inactive; / = not tested or not shown; & = joins results of further samples. Not a hit list. About 1.9% of those tested had a hit in this group.

Molecule	MenB inh	Mtb MbtI inh	Polio RdRp inh	Polio RdRp inh intensity
O=C(NCc1ccc2c(c1)OCO2)c1ccncc1	2	-8	104	107
O=c1[nH]c(SCc2cc(=O)n3ccccc3n2)nc2c1CCC2	-12	17	102	104
Cc1oc(-c2ccccc2)cc1C(=O)NC(C)C12CC3CC(CC(C3)C1)C2 (stereo not given)	-1	/	102	105
COc1ccc(NC(=O)c2ccc(COCC(F)(F)C(F)F)cc2)cc1	-3	3	100	102
CCC(c1nnnn1Cc1ccccc1)N1CCN(c2cccc(Cl)c2)CC1 (stereo not given)	-7	-10	102	102
O=c1c2ccccc2nc(Sc2ncccn2)n1-c1ccc(OC(F)F)cc1	-16	-5	102	107
Cc1nnsc1C(=O)Nc1ccc(CN2CCS(=O)(=O)CC2)cc1	3	-9	105	104
CCOc1ccccc1OCC(=O)O	/	-4	100	103
CCOC(=O)CC1Sc2ccccc2N=C1SCC(=O)Nc1ccc(Cl)cc1Cl (stereo not given)	-54	96*	110	101
CCn1c(C(=O)N2CCC(C(=O)NCCc3ccc(OC)c(OC)c3)CC2)cc2sccc21	4	6	102	103
COc1ccc(-c2c3c([nH]c(=O)c2C#N)-c2ccccc2CC3)cc1	-16	-35	102	101
CC(=O)n1c(=S)[nH]c2ccccc21	9	101*	99	103
OC1CCNCC1	-17	-4	105	109
O=C1CSc2ccccc2N1	-17	-1	101	98
O=C(CCCc1ccccc1)Nc1ccccc1C(=O)O	-32	-96	101	103
O=c1c2ccccc2nc(-c2ccccc2)n1OCc1ccc(Br)cc1	-16	-2	105	89
CCc1ccc(NC(=O)Cn2nc(-n3cccc3)c3c(C)cc(C)nc32)cc1	-6	121	101	103
O=C(CCCc1nnc2c(=O)n(-c3ccc(Cl)cc3)ccn12)NCCN1CCCC1	0	1	100	104
COc1ccc(-c2nc(N)s[n+]2-c2ccccc2)cc1	/	98*	102	96
CC(=O)N1C(=O)/C(=C2\SC(=S)N(C(C)C(=O)O)C2=O)c2ccccc21 (stereo not given)	34*	9	103	103
CCCCN(C)C(=O)C1CCN(c2nn3cc(-c4ccc(OC)cc4)nc3s2)CC1	-25	-8	/	/
CC(C)(C)C1=NN(C(=O)c2cccc(S(=O)(=O)N3CCOCC3)c2)C(=O)C1	-12	-11	104	109
O=C(O)c1cccnc1	-14&2	-1&-11	98&101	99&103
Cc1nn(-c2ccccc2)c(C)c1/C=C(\C#N)S(=O)(=O)c1ccccc1	-25	-9	102	103
COC(=O)C1=C(C)N(Cc2cccnc2)C(=O)/C1=C\c1cccc(Cl)c1	-41	-1	104	102
Cc1ccnc(NS(=O)(=O)c2ccc(C3CCCCC3)cc2)c1	14	5	100	100
CC(=O)N1c2ccc(S(=O)(=O)Nc3ccc(CN4CCCCC4)cc3)cc2CC1C (stereo not given)	-15	-18	101	101
CN(C(=O)c1cccs1)C1CCS(=O)(=O)C1 (stereo not given)	/	-4	102	97
CCN(C(=O)C12CC3CC(CC(C3)C1)C2)C1CCS(=O)(=O)C1 (stereo not given)	-21	-6	104	96
CNc1c(NC(=O)Nc2ccc(F)cc2)c(=O)oc2ccccc12	21	3	100	103
O=C(O)C1CC1(C(=O)O)C(=O)O (stereo not given)	-26	-6	101	100
CC(C)(C)OC(=O)NCCN1CCNCC1	-30	2	101	102
Cn1nc(C(=O)Nc2sc3c(c2C(N)=O)CCC3)ccc1=O	-18	-1	98	97
O=C(CSc1ccc(Cl)cc1)c1cc2ccccc2o1	/	20	103	101
CC1(C)NC(=O)N(c2ccccc2)N1	4	-10	101	100
Cc1ccc(C2C(C=C3C(=O)NC(=O)NC3=O)=C(c3cccs3)Oc3ccccc32)cc1 (stereo not given)	-9	58	103	106
O=C(OCC(F)(F)C(F)F)c1ccc(O)cc1	-23	11	104	106
O=C(NC1CC1)c1ccc2c(c1)[nH]c(=S)n1c3ccccc3nc21	-16	-10	102	101
O=C(Nc1ccc(Cl)cc1)C1COc2ccccc2O1 (stereo not given)	-33	2	100	101
CCn1c(=O)n(CC)c2cc(N3CCCC3)c(NC(=O)C(C)(C)C)cc21	14	15	99	97
CN(C)c1ccc(/C=N/NC(=O)N/N=C/c2ccc(N(C)C)cc2)cc1	-8	-133	101	103
Cc1cc(C)c2c(=O)n(CC(=O)Nc3ccc(Br)c(C)c3)sc2n1	-3	122	99	103
O=C(NCCN1CCCC1)C(c1ccccc1)N1Cc2ccccc2C1=O (stereo not given)	9	-20	101	104
CCCCOC1CCC(OCCCC)OC1 (stereo not given)	-27	-8	108	110
O=C(NC1CCCCCCC1)c1cc(=O)[nH]c2ccc(S(=O)(=O)N3CCCCC3)cc12	-15	6	100	100
O=C(CN1CCN(c2ccc(C(F)(F)F)cn2)CC1)c1ccccc1	0	7	102	94
CCCNC(=O)c1cc2c(s1)CS(=O)(=O)C2	10	-2	102	99
CC1CCCC(C)N1C(=O)COC(=O)/C=C/c1cccs1 (stereo not given)	-34	0	104	99
N#CC(C#N)=c1s/c(=C\c2ccc(-c3ccc(S(=O)(=O)N4CCOCC4)cc3)o2)c(=O)n1Cc1ccco1	-27	-29	43	236
Cc1cc(C)c(N=c2scc(C)n2Cc2ccccc2)c(C)c1	-31	6	103	109
Cc1cc(Cl)ccc1OCCCC(=O)NC1CCSC1=O (stereo not given)	-3	-5	101	106
COc1cc2ccncc2cc1OC	-3	i	/	/
CCOC(=O)N1CCN(Cc2cccc3ccccc23)CC1	-3	-7	101	105
O=C1c2ccccc2C2(c3ccc(Cl)cc3)NCCN12 (stereo not given)	-19	0	103	107
COC(=O)CCSCc1cn2ccsc2n1	-29	-2	96	94
CCc1ccc(-n2c(=S)sc3c(=O)n(-c4ccccc4)c(SCC#N)nc32)cc1	-38	0	104	101
CC(C)(C)c1ccc(C(=O)CC(SC2CCCCC2)C(=O)O)cc1 (stereo not given)	-2	/	102	100
COc1ccc(CCN(C)C(=O)c2ccc3c(=O)n4c(nc3c2)CCCCC4)cc1OC	-16	-9	99	102
CCc1nnc(NC(=O)c2sc(C)nc2C)s1	-16	-18	103	103
O=C(NCCOc1ccccc1-c1ccccc1)c1ccco1	-26	/	101	102

(next part)
Molecule	MenB inh	Mtb MbtI inh	Polio RdRp inh	Polio RdRp inh intensity
CC1=NN(C(=O)c2ccccc2)C(C)(NN(C)c2ccccc2)C1 (stereo not given)	-23	4	99	99
CN[C@H](CC(C)C)C(=O)N[C@H]1C(=O)N[C@@H](CC(N)=O)C(=O)N[C@H]2C(=O)N[C@H]3C(=O)N[C@H](C(=O)N[C@H](C(=O)O)c4cc(O)cc(O)c4-c4cc3ccc4O)[C@H](O)c3ccc(c(Cl)c3)Oc3cc2cc(c3O[C@@H]2O[C@H](CO)[C@@H](O)[C@H](O)[C@H]2O[C@H]2C[C@](C)(N)[C@H](O)[C@H](C)O2)Oc2ccc(cc2Cl)[C@H]1O	-1	-6	101	102
Cc1nc2sc3c(NC4CCCCC4)ncnc3c2c2c1COC(C)(C)C2	-10	-1	101	109
CS(=O)(=O)CS(=O)(=O)NNc1ncc(C(F)(F)F)cc1Cl	-25	57*	104	108
Cc1cccc(C(C)C)c1NC(=O)c1ccncc1	2	/	103	112
COC(=O)CC1C(=O)NCCN1C(=O)NC1CCCCC1 (stereo not given)	-54	/	108	106
NC1=NC(=O)CC(C(=O)NCCc2ccccc2)S1 (stereo not given)	-31	-3	105	103
COc1cc(C2N=C(N)Nc3nc4ccccc4n32)cc(OC)c1OC (stereo not given)	-7	4	105	109
O=C(OCc1ccccc1F)C1CCCC1	/	1	100	104
Cc1noc(/C=C/N(C)C)c1S(=O)(=O)N1CCCC(C(=O)N2CCc3ccccc32)C1 (stereo not given)	12	-3	100	102
CC(C)(C)c1ccc(Oc2ncccc2C(=O)O)cc1	1	-11	104	112
O=C(Nc1ccc(N2CCOCC2)c2nonc12)c1ccco1	-3	1	99	103
CCOC(=O)c1cc2c(ccn2C)n1CC(=O)NC(c1ccccc1)c1ccccc1	-28	52	100	98
Cc1ccccc1Nc1nc(N)nc(CSc2nnc(Cc3ccccc3)o2)n1	3	4	97	98
CCOC(=O)Nc1cc(Cl)ccc1Cl	-24	-11	102	105
COc1ccc2c(c1)c(=O)oc1c(C)c(OCC(=O)O)ccc12	-14	116	102	100
COCCN(Cc1cc2ccc(C)c(C)c2nc1Cl)C(=O)N1CCOCC1	-33	-9	102	104
Cc1ccc2c(c1)C1CN(C)CCC1N2S(=O)(=O)c1ccccc1 (stereo not given)	/	-10	99	105
O=C(Cc1cc(F)cc(F)c1)Nc1ccc(F)cc1	-3	-4	104	115
CC(C)C(=O)N1N=C(c2cccnc2)CC1(O)C(F)(F)F (stereo not given)	-43	8	103	102
COc1ccc2[nH]c3c(=O)n(CCC(=O)NC4CCCCCC4)c(=S)[nH]c3c2c1	-22	2	103	97
O=C(O)CSC1=NCCCN1	1	3	99	103
Cc1c(Nc2ncccc2C(=O)O)cccc1C(F)(F)F	-6	19	99	101
Cc1ccc(C(=NCc2ccccc2)NC#N)cc1	-23	/	99	101
COc1ccc(CCNC(=O)c2ccc3nc4ccc(Cl)cc4c(=O)n3c2)cc1OC	-7	-6	104	105
CC(=O)Nc1nc2ccc3ccccc3c2s1	-24	2	100	102
Cc1cccc(NC(=O)Cn2cc(C(=O)C3CC3)c3ccccc32)c1	-11	/	107	113
CCC(=Nc1ccccc1N)c1c(O)n(Cc2ccccc2)c(=O)[nH]c1=O	17	-1	103	103
Cc1ccc(OCC(O)CNC(=O)c2ccccc2C(=O)O)cc1 (stereo not given)	2	6	101	99
Cc1ccc(S(=O)(=O)N(CC(=O)Nc2cccnc2)c2cc(C)cc(C)c2)cc1	1	14	101	102

Entries of single compounds, quoted from the list.
Cc1cccc(C(C)C)c1NC(=O)c1ccncc1 in the list: MenB inh = 2; Mtb MbtI inh = /; Polio RdRp inh = 103; Polio RdRp inh intensity = 112
CS(=O)(=O)CS(=O)(=O)NNc1ncc(C(F)(F)F)cc1Cl in the list: MenB inh = -25; Mtb MbtI inh = 57*; Polio RdRp inh = 104; Polio RdRp inh intensity = 108
Cc1c(Nc2ncccc2C(=O)O)cccc1C(F)(F)F in the list: MenB inh = -6; Mtb MbtI inh = 19; Polio RdRp inh = 99; Polio RdRp inh intensity = 101

Carrying on.
Molecule	MenB inh	Mtb MbtI inh	Polio RdRp inh	Polio RdRp inh intensity
CN(C(=O)COC(=O)Cn1cnc2ccccc2c1=O)c1ccccc1	-12	-11	111	124
O=C(NC1CCCCC1)N1CCc2ccccc2C1	-15	-18	101	102
Cc1cc(C)nc(SCC(=O)Nc2ncc3c(n2)CCCC3=O)n1	-20	-5	100	101
CC(C)CCNC(=O)c1nn(-c2ccccc2)c(=O)c2ccccc12	8	-7	107	113
Cc1cc(CNC(=S)Nc2ccc(S(N)(=O)=O)cc2)nn1C	8	4	101	103
Cc1cc(OC(=O)/C=C/c2ccc(F)cc2)cc(=O)o1	-38	62	84*	85*
CCOC(=O)N1CCN(C(=O)c2ccc3c(c2)ncn3C2CCCC2)CC1	3	-9	101	104
CC[C@H]1OC(=O)[C@H](C)[C@@H](O[C@H]2C[C@@](C)(OC)[C@@H](O)[C@H](C)O2)[C@H](C)[C@@H](O[C@@H]2O[C@H](C)C[C@H](N(C)C)[C@H]2O)[C@](C)(O)C[C@@H](C)/C(=N\OCOCCOC)[C@H](C)[C@@H](O)[C@]1(C)O	1	-11	100	101
O=C1C2C3c4ccccc4C(c4ccccc43)C2C(=O)N1CCN1CCNCC1 (stereo not given)	-5	-15	101	104
O=C(OCC(=O)N1CCCC1=O)c1cccc(Oc2ccccc2)c1	-15	-56	104	110
CC12NCCC1(C)c1ccccc1N2 (stereo not given)	6	-6	102	102
O=S(=O)(Cc1ccccc1)Nn1cnnc1	-10	2	101	108
O=C(c1cc(=O)c2ccccc2o1)N1CCN(S(=O)(=O)/C=C/c2ccccc2)CC1	-19	-10	101	94
COc1ccc2[nH]c3c(=O)n(CC(=O)N(C)Cc4ccccc4)c(=S)[nH]c3c2c1	-26	-11	102	105
Cc1cc(C)n(CCC(=O)O)n1	8	-12	103	102
NS(=O)(=O)c1ccc(CNC2=NCCCCC2)cc1	-28	-6	104	108
CCOc1ccc2nc(SCc3cc(=O)oc4cc(O)ccc34)[nH]c2c1	-13	16	95	96
O=C(O)Cn1c(P(=O)(O)c2ccccc2)nc2ccccc21	-18	-4	102	104
CCN(CC)c1ccc(C(=O)NN=C2C3CC4CC(C3)CC2C4)cc1	-12	22	106	109
CC(C)CN(CC(C)C)C(=O)Cn1nc(C(=O)O)c2ccccc2c1=O	8	-8	102	103
CC(SC1=NS(=O)(=O)c2ccccc21)C(=O)O (stereo not given)	-42	-3	101	102
CC(C(=O)O)n1nc(-c2ccccc2)c2ccccc21 (stereo not given)	-12	72	101	103

Bioassay records (PubChem BioAssay)
